# Bioassay records (PubChem BioAssay)
# TDP1 block: TDP1 (human) enzyme inhibition. Q9NUW8. recombinant TDP1, AlphaScreen DNA substrate cleavage. Potency, µM (doses to about 130 µM), inactives show at the highest dose activity change, negative = inhibition, usual class: inhibitors. hit rate 0.28% among 350,000. AID 485290; note: nearly all actives have a fitted effect of over 40% in size
# Target sequence (Q9NUW8 whole entry, looked up): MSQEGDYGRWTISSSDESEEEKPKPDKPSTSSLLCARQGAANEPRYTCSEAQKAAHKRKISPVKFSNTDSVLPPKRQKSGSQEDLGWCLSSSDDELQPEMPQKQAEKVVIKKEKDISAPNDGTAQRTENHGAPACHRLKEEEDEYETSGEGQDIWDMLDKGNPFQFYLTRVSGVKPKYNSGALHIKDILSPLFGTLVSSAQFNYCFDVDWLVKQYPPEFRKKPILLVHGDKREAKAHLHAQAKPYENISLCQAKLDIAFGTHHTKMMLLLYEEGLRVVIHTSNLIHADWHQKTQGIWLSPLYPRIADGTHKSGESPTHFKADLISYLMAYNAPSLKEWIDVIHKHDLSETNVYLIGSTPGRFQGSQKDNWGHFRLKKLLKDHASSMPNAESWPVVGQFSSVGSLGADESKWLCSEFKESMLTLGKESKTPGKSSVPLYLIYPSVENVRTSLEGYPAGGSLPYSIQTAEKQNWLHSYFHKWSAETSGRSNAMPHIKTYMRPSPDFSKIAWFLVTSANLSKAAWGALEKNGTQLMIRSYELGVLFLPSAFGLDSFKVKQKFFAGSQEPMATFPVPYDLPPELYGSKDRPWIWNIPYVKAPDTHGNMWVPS
#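 Here, a 5' biotin and 3' phosphotyrosine-FITC DNA oligonucleotide reports Tdp1 activity: intact substrate bridges AlphaScreen beads, while cleavage leaves a 3' phosphate and drops signal. All incubations at room temperature.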
# FEN1 inh: inhibitors of human flap endonuclease 1; Recombinant FEN1 flap cleavage, fluorescence, 15 min; hit rate 0.35% among 390,000; Potency, µM (doses to about 114 µM), without a hit: at the highest dose activity change, negative = inhibition, most hits filed as inhibitors; P39748; note: nearly all actives have a fitted effect of over 65% in size
# Target sequence (P39748 whole entry, looked up): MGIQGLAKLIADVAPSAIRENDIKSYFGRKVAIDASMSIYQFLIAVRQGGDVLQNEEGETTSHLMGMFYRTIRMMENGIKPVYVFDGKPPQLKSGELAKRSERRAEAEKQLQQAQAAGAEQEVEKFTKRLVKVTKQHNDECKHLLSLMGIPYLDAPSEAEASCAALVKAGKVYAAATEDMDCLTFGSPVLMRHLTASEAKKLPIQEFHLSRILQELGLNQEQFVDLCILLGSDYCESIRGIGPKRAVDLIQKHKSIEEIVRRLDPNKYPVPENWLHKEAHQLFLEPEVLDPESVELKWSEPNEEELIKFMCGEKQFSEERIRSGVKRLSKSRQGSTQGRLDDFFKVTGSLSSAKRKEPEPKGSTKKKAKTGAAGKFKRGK
#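 Concentration–response screening of FEN1 (10 nM): 15 min compound preincubation at room temperature, reaction started with 50 nM substrate and read at 0 and 15 min. Corrected, normalized data were fitted by a four-parameter Hill equation.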
# * hit, by the source's call; ? = inconclusive; / = no result given; [ ] = dose if it differs, or a comment. Calls come from the whole dose curve; as a rule, active = well fitted inhibition curve with a large enough effect; inconclusive = small, poorly fitted or top-dose-only effect; inactive = no such curve, though single readings can be large or run the other way. % is set by controls: 0 for no effect and ±100 for the full control effect; potency is the fitted concentration of half-maximal effect.
SMILES,TDP1 block,FEN1 inh
Cc1cc(C)c(OCCN(C)C)c(Cl)c1,-4%,8%
COc1ccc(-c2n[nH]c(=S)n2-c2ccccc2C)cc1OC,3%,4%
CCNc1nc(NCC)n2c(SCc3ccc(F)cc3)nnc2n1,4%,2%
CC1CCN(C2CC(=O)N(c3ccc(Br)cc3Br)C2=O)CC1 (centres undefined),/,-4%
O=C1CC2(CCCCC2)Oc2ccc(OCC(=O)N3CCOCC3)cc21,0%,-6%
Cc1cc2occ(CC(=O)Nc3nccs3)c2cc1C(C)C,-2%,-17%
Cc1cccc(NC(=O)CCS(=O)(=O)c2ccc3c(c2)oc(=O)n3C)c1,2%,-14%
CCOc1ccc(-n2c(SCc3nc(-c4cccs4)no3)nnc2-c2ccncc2)cc1,7%,-15%
O=C(Nc1cc(C(F)(F)F)ccc1N1CCOCC1)c1ccc2ccccc2n1,0%,2%
COc1ccc(Cl)cc1NC(=O)Nc1ccc(Br)cn1,5%,4%
CC1(C)Cc2c(c(N3CCOCC3)nc3sc4c(=O)[nH]cnc4c23)CS1,-4%,-3%
CSc1ccc(S(=O)(=O)N2CCC(C(=O)N3CCc4ccccc4C3)CC2)cc1,1%,11%
Cc1cccc(NC(=O)c2cc(-c3cccnc3)nc3c(C)cccc23)n1,3%,-14%
O=C(O)c1ccccc1N=Cc1c(O)n(-c2nccs2)c(=O)c2ccccc12,0%,-19%
O=C(CSc1nnc(NC(=O)c2cccc(F)c2)s1)NC1CCCC1,/,5%
Cn1c(=O)[nH]c(=O)c2c1ncn2CCCc1ccccc1,6%,-2%
Cc1ccc(NC(=O)c2cc(C)on2)cc1,5%,-6%
COc1cc(-c2nnn(CC#N)n2)ccc1OCc1ccccc1,1%,-14%
C=CCN(c1ccccc1)S(=O)(=O)c1cccc(C(=O)NNC(=O)c2ccncc2)c1,0%,-1%
O=C(COC(=O)Cn1cnc2ccccc21)NCCc1ccccc1,2%,-8%
CC(C)(C)Nc1nc(OCC#N)nc(N2CCCCC2)n1,3%,-4%
Cn1cc(C(=O)NC2C3CC4CC(C3)CC2C4)cn1 (centres undefined),0%,9%
CN(C)S(=O)(=O)n1cc(/C=C(\NC(=O)c2ccccc2F)C(=O)N2CCCC2)c2ccccc21,8%,4%
Cc1c(NC2=NC3(CCCCC3)Cc3ccccc32)c(=O)n(C)n1-c1ccccc1,2%,-1%
CC1C(=O)N(c2ccc(S(=O)(=O)N(C)C)cc2)C1(/C=C/c1ccccc1)C(=O)NC1CCCC1 (centres undefined),8%,-8%
COc1ccc(NC(=O)CCN2C(=O)c3ccc([N+](=O)[O-])cc3C2=O)c(OC)c1,4%,12%
c1ccc2c(c1)ccc1nnc(-c3ccc4c(c3)OCO4)n12,-2%,0%
CC(=O)c1cc(-c2ccc(F)cc2)n(CC(=O)NCc2cccs2)c1C,2%,-2%
O=C(Cc1ccccc1)Nc1cccc(-c2nc3ncccc3o2)c1,0%,1%
CCCN1CCC(NC(=O)Nc2ccc(Br)cc2)CC1,5%,1%

# Two records picked at random from those above, as already listed:
SMILES,TDP1 block,FEN1 inh
COc1ccc(-c2n[nH]c(=S)n2-c2ccccc2C)cc1OC,3%,4%
CC(C)(C)Nc1nc(OCC#N)nc(N2CCCCC2)n1,3%,-4%

# (cont.)
SMILES,TDP1 block,FEN1 inh
CN(C)c1cc[n+](CC(=O)Nc2ccc(Cl)cc2)cc1,/,17%
C/C(=N\n1cnnc1)c1ccc(C#N)cc1,-1%,3%
COc1ccccc1CNC(=O)Cn1cc2c(n1)CCCC2,3%,-4%
COc1cc(-c2nnc(NC(=O)CCS(=O)(=O)c3ccccc3)o2)cc(OC)c1OC,1%,17%
Cc1ccccc1N1C(=O)c2cccc3c(N(C)CCO)ccc(c23)C1=O,-4%,-4%
Cc1ccn2c(C(=O)N/N=C\c3cccs3)c(C)nc2c1,3%,17%
Cc1ccc(CNCC(O)(c2ccc(F)cc2)c2ccc(F)cc2)cc1,1%,1%
COc1cc([N+](=O)[O-])ccc1NC(=S)N1CCOCC1,4%,-5%
O=C(O)c1cnc(-c2ccccc2)nc1Sc1ccccc1,-1%,-4%
CCOC(=O)Cc1nn2c(=O)cc(C)nc2s1,0%,8%
CCn1c(SCC(=O)Nc2ccc(NC(=O)c3cccs3)cc2)nnc1-c1cccnc1,4%,-11%
CC(=Nc1cccc(O)c1)c1sc2ccccc2c1O,7%,-8%
Cc1cccc(Cl)c1NC(=S)NN,/,-2%
Cc1ccccc1N1C(=O)c2ccccc2C1O (centres undefined),/,-9%
CC(C)Oc1ccc2c(c1)OC(c1ccccc1)(C(F)(F)F)NC2=O (centres undefined),0%,-2%
COc1ccc(NS(=O)(=O)c2ccc(C)c(C(=O)NNC(=O)c3csc(N4CCOCC4)n3)c2)cc1,-3%[0.505 µM],4%
O=C1NC(c2ccccc2)=C(c2ccccc2)C1=O,-4%,-2%
CN1C(=O)c2cccc(NCCCN3C(=O)c4ccccc4C3=O)c2C1=O,8%,0%
Cc1ccc(C)c(Cn2nnc(C(=O)Nc3ccc4c(c3)OCCO4)c2N)c1,9%,-2%
CN(C)C(=S)Nc1ccc(Cc2ccncc2)cc1,3%,-2%
COc1ccc(/C=C(\C#N)C(=O)ONC2=NCCCCC2)cc1,2%,11%
COc1ccc(NC(=O)NNc2cc(N3CCOCC3)nc(N3CCOCC3)n2)cc1,4%,15%
CCN1C(=O)[C@H]2[C@@H](c3ccc(-c4ccc(C(C)=O)cc4)c(OC)c3)N3CCCC[C@@]3(C(=O)OC)[C@H]2C1=O,3%,6%
COc1ccc(-n2c(=S)[nH]c3cc(C(=O)NCCCN4CCCC4=O)ccc3c2=O)cc1,-4%,4%
COc1cccc2c(=O)n(CC(=O)Nc3ccc(F)cc3)ccc12,-4%,4%
O=C(Nc1ccc2c(c1)OCCO2)c1cc(F)c(F)cc1Cl,3%,14%
c1ccc2c(c1)CCCN2Cc1nnc2n1CCCCC2,6%,15%
CN1CCC(=NNC(=O)c2ccc(N(Cc3ccc(Cl)cc3)S(C)(=O)=O)cc2)CC1,6%,3%
C=CCn1c(N)cc(=O)nc1SCC(=O)Nc1ccc(C)cc1,-3%,-3%
O=C(Nc1ccccc1N1CCCC1)C1CCN(C(=O)c2ccc(F)cc2)CC1,1%,-3%
CSCC[C@@H](C(=O)O)N1Cc2ccccc2C1=O,-3%,?
COc1ccc(N(CC(=O)NCCC2=CCCCC2)S(=O)(=O)c2ccccc2F)cc1,1%,1%
Cc1cc(F)ccc1S(=O)(=O)N1CCCCC1CCNC(=O)C(=O)NCCN1CCOCC1 (centres undefined),0%,5%
CCOc1ccc(N(CC(=O)NC2CCCC2)S(=O)(=O)c2ccccc2)cc1,4%,-1%
Cc1cc2n(n1)C(c1ccccc1)CC(c1ccc(Br)cc1)=N2 (centres undefined),-6%,-4%
CCC1CN(C(=O)NCc2ccc(C)cc2)c2cc(Cl)ccc2O1 (centres undefined),0%,?
Cc1ccc(Cl)cc1NS(=O)(=O)c1ccc2c(c1)NC(=O)C(C)C(=O)N2 (centres undefined),/,31%
Cc1cccc(N(CC(=O)NCCc2ccccc2)C(=O)c2csnn2)c1,-1%,1%
CCOc1ccc(NC(=O)CN(C)C(=O)c2n[nH]c(=O)c3ccccc23)cc1OCC,4%,-6%
Cc1ccc(S(=O)(=O)n2nc(-c3cccnc3)nc2N)cc1,-3%,10%
CCOC(=O)C(NC(C)=O)(Nc1ccc(F)cc1)C(F)(F)F (centres undefined),6%,1%
CCOC(=O)C1(Cc2ccccc2)CCN(CC2CC=CCC2)CC1 (centres undefined),6%,-1%
CC(=O)CC(=O)Nc1ccn(-c2ccccc2)n1,3%,-11%
COc1ccc(NC(=O)C2CCC(C)(C(=O)O)C2(C)C)cc1 (centres undefined),4%,4%
COc1ccc(NC(=O)CSCc2ccc(C)cc2)cc1,5%,13%

# Rewritten with two lines to a compound: 6 of the compounds above
# Results follow in this order: TDP1 block | FEN1 inh
Cc1ccc(S(=O)(=O)n2nc(-c3cccnc3)nc2N)cc1
→ -3% | 10%
CCOC(=O)C(NC(C)=O)(Nc1ccc(F)cc1)C(F)(F)F (centres undefined)
→ 6% | 1%
CCOC(=O)C1(Cc2ccccc2)CCN(CC2CC=CCC2)CC1 (centres undefined)
→ 6% | -1%
CC(=O)CC(=O)Nc1ccn(-c2ccccc2)n1
→ 3% | -11%
COc1ccc(NC(=O)C2CCC(C)(C(=O)O)C2(C)C)cc1 (centres undefined)
→ 4% | 4%
COc1ccc(NC(=O)CSCc2ccc(C)cc2)cc1
→ 5% | 13%

# (further entries)
SMILES,TDP1 block,FEN1 inh
COc1cccc(C(=O)Nc2ccc3nc4n(c(=O)c3c2)CCCC4)c1,/,-4%
Nn1c(SCc2cccc(C(F)(F)F)c2)nnc1-c1ccco1,0%,-6%
O=C(NCc1ccccc1)c1ccc(-c2ccc(F)cc2)o1,5%,3%
O=C(CSc1nc2ccccc2o1)NC1CCCC1,5%,-6%
CC1(C)CC(=O)C2=C(C1)NC1=C(C(=O)c3ccccc31)C2c1cccnc1 (centres undefined),4%,-4%
CCOC(=O)c1c(C)[nH]c(C)c1C(=O)COC(=O)/C=C/c1cccc(C(F)(F)F)c1,6%,-3%
O=C(CCCN1C(=O)/C(=C/c2cccs2)SC1=S)Nc1cccc(O)c1,/,-3%
O=C(/C=C/c1ccco1)NC(=S)Nc1ccccc1Br,2%,-10%
Cc1[nH]c(=O)[nH]c(=O)c1S(=O)(=O)N1CCCC(C(=O)N2CCN(c3ccccc3Cl)CC2)C1 (centres undefined),7%,-8%
CC(C)C[C@H](N)c1cn([C@@H](Cc2ccc(O)cc2)C(=O)N2CCNCC2)nn1,6%,0%
C/C(=N\n1c(C)nc2ccccc2c1=O)c1ccc(C)o1,2%,0%
Cc1cc(C)c(N2CCN(S(=O)(=O)N3CCCCCC3)CC2)c(C)c1,-2%,-4%
O=C(CCN1CCN(c2ccccc2)CC1)Nc1cccc(Br)c1,0%,9%
COc1ccccc1N1CCN(C(=O)C(C)N(c2ccc(C)cc2)S(C)(=O)=O)CC1 (centres undefined),2%,5%
COC(=O)c1cc(OC)c(OC)cc1NC(=O)CCc1ccc(C)o1,7%,1%
C=CC[N+]1(CC=C)CCOCC1,1%,5%
Cc1ccccc1CNC(=O)CCn1nc(C)c2c(C)n(-c3ccccc3)nc2c1=O,3%,15%
COc1ccc(-c2nc3cnccn3c2NC(C)(C)CC(C)(C)C)cc1O,-1%,5%
CCCn1cc(SCC(=O)NC2CCCC2)c2ccccc21,2%,6%
CC1(C)Cc2c(sc(NC(=O)C3CC(Cl)=CCC3C(=O)O)c2C#N)CO1 (centres undefined),5%,-2%
CC1(C)C(C(=O)O)N2C(=O)C(NC(=O)Cc3ccccc3)C2S1=O (centres undefined),/,16%
O=C(Nc1ccc([N+](=O)[O-])cn1)c1ccc(Br)o1,5%,-4%
C=C1c2cc(OC)ccc2NC(=O)N1CC,1%,0%
CCCCn1c(N)c(N(CCOC)C(=O)CCNC(=O)c2ccc(Br)cc2)c(=O)[nH]c1=O,-8%[0.505 µM],0%
COc1ccc(S(=O)(=O)N2CC(=O)Nc3ccccc32)cc1C,4%,0%
N#CCN1C(=O)C(=O)N(Cc2cccc(C(F)(F)F)c2)C1=O,/,8%
O=C(C[n+]1cccc(C(=O)N/N=C/c2cccc([N+](=O)[O-])c2)c1)c1ccccc1,1%,-9%
CCCOc1ccc(-c2c(C(=O)N/N=C(\C)c3ccco3)nnn2-c2nonc2N)cc1,1%,0%
CC(=O)c1ccc(Nc2cc(C)nc3nc(C)nn23)cc1,0%,-5%
O=C(CN1C(=O)NC2(CCCC2)C1=O)Nc1ccccc1F,0%,-4%

# Shown with two lines to a compound: part of the list above
# Every second line gives: TDP1 block, FEN1 inh
- O=C(CN1C(=O)NC2(CCCC2)C1=O)Nc1ccccc1F
    0%, -4%
- O=C(C[n+]1cccc(C(=O)N/N=C/c2cccc([N+](=O)[O-])c2)c1)c1ccccc1
    1%, -9%
- CC(=O)c1ccc(Nc2cc(C)nc3nc(C)nn23)cc1
    0%, -5%

# Next compounds:
SMILES,TDP1 block,FEN1 inh
COc1cccc(-c2cc(C(=O)Nc3c(C)nn(Cc4ccccc4)c3C)no2)c1,4%,-2%
Cc1cc(-c2nnc(CCC(=O)NC(C)c3ccccc3Cl)o2)no1 (centres undefined),-2%,-3%
CCOC(=O)C1CN(S(=O)(=O)c2ccc(C)cc2)c2cc(S(=O)(=O)CC)ccc2O1 (centres undefined),-3%,-5%
CCOc1ccc(C(C)=O)cc1COc1ccc(C)nc1[N+](=O)[O-],7%,-18%
COC(=O)CSc1ncnc2c(C)csc12,-4%,-15%
Cc1oc2cc(OC(=O)c3ccco3)ccc2c(=O)c1-c1nc2ccccc2n1C,3%,-6%
CCOc1ccc(CN2CCNC(=O)C2CC(=O)NCCc2nc(C)c3c(n2)CCC3)cc1 (centres undefined),/,-3%
CN(CC(=O)Nc1ccc(Cl)cc1)C(=O)C1=COCCO1,/,-2%
CCOC(=O)CNc1cccc(C(F)(F)F)c1,2%,11%
CC(=O)c1cnn(-c2c(Cl)cc(Cl)cc2Cl)c1C,4%,-3%
CN(CC(=O)Nc1ccc(Cl)c(C(F)(F)F)c1)C(=O)Cc1ccsc1,/,3%
O=[N+]([O-])c1cc2c(cc1C=Nc1ccccc1)OCO2,4%,-1%

# The list is partial, and most or all hits are left out here.
